HIV Env fusion: HIV envelope-mediated fusion inhibition; 1.1% of 360,000 active; HeLa-JRFL Env/CEM21 cell fusion, luciferase; inhibition, % at 12.3 µM;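 active = mean replicate inhibition score of at least 50 and every replicate individually at or above 50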;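 also: 0% = plate neutral controls and 100% = maraviroc near 300 nM; one replicate is shown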
eIF4H FP inh: inhibitors of RNA binding by human eIF4H; Q15056; 0.94% of 290,000 active; eIF4H fluorescence polarization binding assay; inhibition, % at 35 µM;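 active = 50% or more with normal probe brightness, or confirmed in later tests; about a fifth of its hits are not listed in these tables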;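 also: calls also rest on retests at 20 µM and on dose response follow-up; 0% = protein and probe with vehicle and 100% = probe without protein; strong numbers were not always called active; many hits fall short of the cut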
MT1-MMP act inh: blocks activation of human MT1-MMP; P50281; HT1080 RFP-PRO-GFP cells, GFP/RFP ratio fluorescence, overnight; percent of plate control window, DMSO zero; GFP/RFP ratio change, % at 20 µM; 0.061% of 360,000 active;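 active = GFP/RFP ratio change of at least 30% with cell ATP level not reduced by more than half and red fluorescence within 50% of control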; also: strong numbers were not always called active
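Assay system: HT1080 cells carrying an RFP-PRO-GFP reporter | Dosing: Single dose of 20 µM compound, 1% DMSO final | Incubation: Cells overnight before dosing, compound overnight, 37 °C, 5% CO2 | Evaluation: GFP/RFP fluorescence ratio | Control set: DMSO and RFP-L50D-GFP cell wells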
UUG fidelity: alters start codon recognition fidelity in yeast | S. cerevisiae UUG-firefly luciferase reporter, luminescence/redox ratio | AID 602363 | activity score, % at 18.7 µM | 0.13% of 350,000 active;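 active = replicate mean at a twofold rise or more, about +100% in these data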;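 also: firefly luciferase made from a UUG start codon reports start codon fidelity; reporter light over untreated wells divided by growth signal over untreated wells; some hits fall short of that in this replicate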
PABP FP inh: PABP-poly(A) binding inhibition; 1% of 290,000 active; PABP-poly(A) RNA binding, fluorescence polarization; inhibition, % at 35 µM; AID 2014; P11940;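 active = 50% or more with normal probe brightness, or confirmed in later tests; about a fifth of its hits are not listed in these tables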;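 also: calls also rest on retests at 20 µM and on dose response follow-up; controls were probe without protein and protein plus probe with vehicle; some compounds called inactive have numbers as strong as hits; many hits fall short of the cut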
CSC inhib: blocks cancer stem cells | cancer stem cell-like cells viability, luminescence | 1.1% of 300,000 active | AID 2717 | inhibition, % at 7.5 µM;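 active = mean at 75% or more and at least half the replicates too; tested in HMLE shEcad cells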;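 also: 0% = median of negative and 100% = median of positive control wells; the first replicate is given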
Rce1 inh: inhibitors of yeast Ras-converting enzyme; yeast membranes, quenched prenylated peptide cleavage fluorescence; calls only; Q03530; 0.27% of 290,000 active;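 active = fall in fluorescence gain of 50% or more versus controls, with final raw signal at or below 3038400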;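 also: plate controls were neutral control wells for no effect and wells lacking membranes for full effect; tested at 10 µM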
Target sequence (Q03530 whole entry, looked up): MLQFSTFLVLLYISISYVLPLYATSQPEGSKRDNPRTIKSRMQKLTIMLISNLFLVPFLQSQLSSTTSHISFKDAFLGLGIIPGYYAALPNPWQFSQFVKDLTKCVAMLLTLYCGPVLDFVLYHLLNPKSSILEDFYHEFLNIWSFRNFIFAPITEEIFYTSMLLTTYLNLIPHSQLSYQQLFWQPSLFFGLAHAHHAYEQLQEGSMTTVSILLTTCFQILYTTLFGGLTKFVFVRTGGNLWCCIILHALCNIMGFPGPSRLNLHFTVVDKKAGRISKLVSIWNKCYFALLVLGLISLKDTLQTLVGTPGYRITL
eIF4H FP inh retest: recorded beside eIF4H FP inh, whose call it bears; inhibition, %; compound at 20 µM; confirmation average;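 mean of two retest wells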
PABP FP inh retest: further read-out of PABP FP inh, marked with its call; inhibition, %; compound at 20 µM; confirmation repeats;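 mean of two retest wells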
MT1-MMP act inh RFP: also measured in MT1-MMP act inh; calls as there; RFP signal change, %; measured here: RFP expression control read;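 0 = vehicle wells; hits needed this value within 50% of zero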
* = called active by the depositor; i = inactive; . = no result given; [ ] = dose if it differs, or a comment.

SMILES	HIV Env fusion	eIF4H FP inh	MT1-MMP act inh	MT1-MMP act inh RFP	UUG fidelity	PABP FP inh	CSC inhib	Rce1 inh	others
Cc1sc2c(c1C)c(=O)n(-c1ccccc1)c(=O)n2CC(=O)NCC1CCCO1 (centres undefined)	5	11	2	0	.	2	-8	i
CCc1cc2c(=O)c(-c3cscn3)coc2cc1O	.	-7	2	1	-14	-7	-6	i
Cn1ccnc1SCc1cn2cc(Br)ccc2n1	.	5	2	2	-69	-6	.	i
Cc1cc(C(=O)CSc2nc(N)cc(N)n2)c(C)n1CCc1ccc(F)cc1	.	4	-3	-9	-7	-12	12	i
CCOc1ncccc1C(=O)OCC(=O)c1c(N)n(C)c(=O)n(C)c1=O	.	-1	-3	2	-9	-1	-4	i
CCOC(=O)c1ccc(N2CCOCC2)c(NC(=O)COCC(=O)O)c1	-30	-8	1	-1	-29	4	-6	i
O=C(NCc1nc2ccccc2[nH]1)C1=C[C@@H](c2ccc3c(c2)OCO3)C[C@@H](OCc2ccc(CO)cc2)O1	-3[16.7 µM]	-13	.	.	7	-13	.	i
Cc1ccc(C)c(N2C(=O)c3cc(N4CCOCC4)c([N+](=O)[O-])cc3C2=O)c1	-41	-7	4	4	-12	5	-1	i
CC1Oc2ccccc2N(CC(=O)NCc2cccs2)C1=O (centres undefined)	-61	1	6	6	5	-2	-2	i
CCOC(=O)c1ccc(NC(=S)N2CCSC2c2ccc(Cl)cc2)cc1 (centres undefined)	.	-8	4	2	-26	-9	36	i
CC1(c2cccc(Br)c2)NC(=O)NC1=O (centres undefined)	-14	-9	1	3	-28	1	-12	i
CCOC(=O)C1=CN(Cc2cccc(F)c2)S(=O)(=O)N(C)C1c1ccc(C(F)(F)F)cc1 (centres undefined)	19	.	-10	-17	-13	.	.	.
Cc1cccc(NC(=S)N2CCOCC2)c1C	-10	-3	-5	-1	.	3	4	i
C/C(=N\NC(=O)Cc1ccccc1)c1ccc(Br)s1	5	9	4	-1	-4	-10	-8	i
CCn1c(CN2CCCCC2)nc2cc(S(=O)(=O)N3CCCCC3)ccc21	-8	.	22	-10	-9	.	.	.
COc1cccc(/C=C/C(=O)OCC(=O)NCC2CCCO2)c1OC (centres undefined)	.	0	-2	-1	.	2	-24	i
N#Cc1c(NC(=O)C(=O)NCCCN2CCOCC2)sc2c1CCCC2	3	0	-2	3	-4	-6	-6	i
CN1c2cccc3cccc(c23)N(C)C1c1cccs1	-51	39	2	6	.	38	9	i
N#Cc1c(N)nc2c(c1-c1ccncc1)CCCCC2	16	5	-5	-4	-15	-4	-14	i
Cc1ccc(S(=O)(=O)Nc2ccccc2-c2ccccc2)cc1	41	-10	0	-17	-8	-8	43	i
COc1ccc(N2C(=O)c3ccccc3NC23CCCCC3)cc1	.	-2	8	-2	-11	2	2	i
COC(=O)c1ccc2[nH]c3cccc(/C(=C/c4ccccc4)c4ccccc4)c3c2c1	32	5	2	-5	-2	-2	129*	i
O=C(OCC(=O)C12CC3CC(CC(C3)C1)C2)c1ccc(O)cc1O	-13	.	2	-3	-17	.	-12	i
COc1ccc(C(=O)Nc2nnc(Cc3ccc(OC)c(OC)c3)s2)cc1	19	-4	4	-6	-15	6	17	i
COCCCNC(=O)CSc1ccsc1[N+](=O)[O-]	7	3	-1	1	.	-13	-13	i
C=CCn1c(SCc2nc3sc(C(=O)O)c(C)c3c(=O)[nH]2)nnc1-c1ccc(C(C)(C)C)cc1	3	40	-1	6	-11	35	-3	i
O=C(NNc1ccccc1[N+](=O)[O-])Nc1ccc(Cl)c(Cl)c1	52	-4	9	-3	.	8	-5	i
NNC(=O)CSc1nnc(-c2ccccc2)n1-c1ccccc1	-27	0	3	0	-14	3	7	i
COc1cccc(-c2nn(-c3ccccc3)cc2/C=C\C(=O)c2cccs2)c1	.	10	-7	-7	-5	-4	31	i
COC(=O)CNC(=O)c1ccccc1F	.	5	2	-2	12	1	4	i
COc1ccc(C(=O)NCC2CCCO2)cc1OC (centres undefined)	-6	0	0	1	.	13	-1	i
Cc1cccc(N2CCN(Cc3cnc(Cl)s3)CC2C)c1 (centres undefined)	16	-6	-2	-7	-5	-2	-3	i
CCOC(=O)c1ccc(NC(=O)c2cccc(C)c2[N+](=O)[O-])cc1	9	-5	-2	0	.	13	-15	i
O=C(COc1ccc(S(=O)(=O)N2CCOCC2)cc1)NCCc1ccccc1	-2	.	2	2	.	.	-14	i
COc1ccccc1C(=O)Nc1ccccc1C(=O)NCc1ccco1	6	2	1	4	-2	14	-9	i
O=C(NC1CCN(Cc2ccccc2)CC1)c1ccccc1NS(=O)(=O)c1ccc(F)cc1	.	.	4	3	-4	.	4	.
CC1(C(=O)OCC(=O)Nc2nnc(-c3ccccc3)o2)CC1(Cl)Cl (centres undefined)	-11	.	0	1	.	.	11	i
CCC(C)N1CC(=O)N2Cc3[nH]c4ccccc4c3C[C@H]2C1=O (some centres undefined)	5	4	-2	4	-3	-9	-5	i
Cn1cnc(S(=O)(=O)N2CCCCC2c2cc(C(=O)Nc3cccc(C#N)c3)no2)c1 (centres undefined)	-8	.	3	4	-17	.	.	.
COc1ccc(-c2cc([C@H]3[C@@H]4C=CCC[C@@]4(C)C(=O)N3Cc3ccccc3)ccc2F)cc1OC	18	-6	-15	-26	-13	-8	91*	i
CCC(=O)Nc1c(S(=O)(=O)c2ccc(C)cc2)c2nc3ccccc3nc2n1C(C)c1ccccc1 (centres undefined)	.	-2	-9	-12	.	0	8	i
O=C(C1CC1)N1CCc2[nH]c3ccccc3c2C1	-66	7	-10	-1	-6	5	-11	i
O=C(COC(=O)C1=COCCO1)Nc1ccc(Cl)cn1	.	.	-4	2	-13	.	3	.
COc1ccc(Cn2cccc(NC(=O)Nc3ccc(F)cc3)c2=O)cc1	-5	0	-5	-18	.	-2	3	i
O=C(CN1C(=O)NC2(CCOc3ccccc32)C1=O)Nc1ccc(Br)cc1F (centres undefined)	.	.	1	0	-5	.	-10	.
CCCc1c(C(=O)N/N=C/c2ccc(-c3ccccc3)cc2)nnn1-c1nonc1N	-15	.	5	6	4	.	.	.
Cc1cc(OC(=O)c2ccc3ccccc3c2)c([N+](=O)[O-])c(=O)[nH]1	-7	-11	-3	3	.	0	-39	i
O=C(Nc1nccs1)c1ccc2nccnc2c1	-91	9	-73	-7	-26	12	-1	i
CC(=O)c1cccc(-c2ccnc3c2CC(C(=O)NCCc2ccccc2)O3)c1 (centres undefined)	-207	.	2	-7	7	.	.	.
Cc1ccc(N/N=C(/Sc2nnnn2-c2ccccc2)C(=O)c2ccccc2)cc1	.	6	3	0	-18	-6	-2	i
(continued)
SMILES	HIV Env fusion	eIF4H FP inh	MT1-MMP act inh	MT1-MMP act inh RFP	UUG fidelity	PABP FP inh	CSC inhib	Rce1 inh	others
O=c1[nH]n2c(=O)c3c([nH]c2c1N=Nc1cccc(Cl)c1)CCCC3	-78	2	24	-4	-26	3	-7	i
CN(C)S(=O)(=O)c1cc(NC(=O)Cn2ccsc2=N)ccc1Cl	13	1	-2	-1	.	-2	-13	i
CCOC(=O)c1ccc(NC(=S)NCCCN2CCOCC2)cc1	9	-2	3	1	.	-2	-5	i
COc1cc2ccc(NC(C)=O)cc2cc1OC	-32	.	3	3	-11	.	.	.
CCN(CC)C(=O)CSc1ncnc2c1cnn2-c1ccccc1	-43	-1	14	-4	-17	-2	1	i
COc1ccccc1N(C)S(=O)(=O)c1ccc(C(=O)Nc2ccc(N3CCOCC3)cc2)cc1	20	-12	-2	-12	-5	-14	-1	i
C=CCn1c(SCC(=O)Nc2ccc(F)cc2)nnc1-c1cnccn1	-1	-1	1	7	-2	-4	-8	i
COc1ccc(/C=N/Nc2ncnc3c2[nH]c2ccc(C)cc23)c(OC)c1OC	18	-2	7	-3	-20	-3	2	i
Cc1cc(-n2c(=O)c(C#N)cc3c(=O)n4ccccc4nc32)no1	-6	104*	-8	4	-8	120*	7	i	eIF4H FP inh retest=68*;PABP FP inh retest=108*
N#C/C(=C\c1cccc([N+](=O)[O-])c1)C(=O)NCC1CCCO1 (centres undefined)	8	-4	2	1	.	0	-7	i

3 entries already listed, ordered by length of the SMILES, rising.
SMILES	HIV Env fusion	eIF4H FP inh	MT1-MMP act inh	MT1-MMP act inh RFP	UUG fidelity	PABP FP inh	CSC inhib	Rce1 inh	others
N#Cc1c(N)nc2c(c1-c1ccncc1)CCCCC2	16	5	-5	-4	-15	-4	-14	i
O=C(OCC(=O)C12CC3CC(CC(C3)C1)C2)c1ccc(O)cc1O	-13	.	2	-3	-17	.	-12	i
CCC(=O)Nc1c(S(=O)(=O)c2ccc(C)cc2)c2nc3ccccc3nc2n1C(C)c1ccccc1 (centres undefined)	.	-2	-9	-12	.	0	8	i

More results:
SMILES	HIV Env fusion	eIF4H FP inh	MT1-MMP act inh	MT1-MMP act inh RFP	UUG fidelity	PABP FP inh	CSC inhib	Rce1 inh	others
OCCC1CN(CCCn2cccn2)CCN1C1CCCCC1 (centres undefined)	14	-5	5	4	.	4	.	i
CCc1ccccc1NC(=O)COC(=O)c1cccs1	-4	-2	0	0	-23	6	-3	i
Cc1ccccc1NC(=O)c1nn(C)c(C(=O)Nc2ccccc2C)c1[N+](=O)[O-]	14	-4	-1	3	-2	-3	-3	i
COc1cc2c(cc1OC)C(C)N(C(=O)[C@@H](NC(=O)c1ccccc1)C(C)C)CC2 (some centres undefined)	-2	4	-4	0	0	-1	0	i
Cc1cccc(/C=N/NC(=O)c2ccc(NC(=O)c3cccc(Cl)c3)cc2)n1	14	-1	5	4	-12	6	5	i
CC(C)c1ccc(C2CC(c3ccc(Br)cc3)=NN2C(N)=S)cc1 (centres undefined)	-16	-1	-8	-16	.	2	49	i
Cc1nn(-c2ccccc2)c(N2CCCC2)c1/C=N/NC(=O)c1ccccc1O	.	3	-9	-8	.	-7	3	i
Cc1ccc2nc(C)c(CN3CCN(c4ccc([N+](=O)[O-])cc4Cl)CC3)n2c1	22	-1	5	-29	-2	-11	2	i

Structures from the list above with a Cl atom, in the order listed:
SMILES	HIV Env fusion	eIF4H FP inh	MT1-MMP act inh	MT1-MMP act inh RFP	UUG fidelity	PABP FP inh	CSC inhib	Rce1 inh	others
CCOC(=O)c1ccc(NC(=S)N2CCSC2c2ccc(Cl)cc2)cc1 (centres undefined)	.	-8	4	2	-26	-9	36	i
O=C(NNc1ccccc1[N+](=O)[O-])Nc1ccc(Cl)c(Cl)c1	52	-4	9	-3	.	8	-5	i
Cc1cccc(N2CCN(Cc3cnc(Cl)s3)CC2C)c1 (centres undefined)	16	-6	-2	-7	-5	-2	-3	i
CC1(C(=O)OCC(=O)Nc2nnc(-c3ccccc3)o2)CC1(Cl)Cl (centres undefined)	-11	.	0	1	.	.	11	i
O=C(COC(=O)C1=COCCO1)Nc1ccc(Cl)cn1	.	.	-4	2	-13	.	3	.
O=c1[nH]n2c(=O)c3c([nH]c2c1N=Nc1cccc(Cl)c1)CCCC3	-78	2	24	-4	-26	3	-7	i
CN(C)S(=O)(=O)c1cc(NC(=O)Cn2ccsc2=N)ccc1Cl	13	1	-2	-1	.	-2	-13	i
Cc1cccc(/C=N/NC(=O)c2ccc(NC(=O)c3cccc(Cl)c3)cc2)n1	14	-1	5	4	-12	6	5	i
Cc1ccc2nc(C)c(CN3CCN(c4ccc([N+](=O)[O-])cc4Cl)CC3)n2c1	22	-1	5	-29	-2	-11	2	i

Some of the compounds tested. The share of hits here may be higher or lower than overall.
